# Screening results as filed in PubChem BioAssay.
# FGF22 binding: shifts melting point of recombinant human FGF22. Q9HCT0. calls only at 9.99 µM. recombinant FGF22 thermal shift, SYPRO orange fluorescence; percent of sucrose octasulfate shift, DMSO zero. hit rate 1.5% among 340,000. AID 651658;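 active means melting point raised past a set limit in the mean and every replicate; inconclusive means no clear call; three in four hits are not shown here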
# Target sequence (Q9HCT0 whole entry, looked up): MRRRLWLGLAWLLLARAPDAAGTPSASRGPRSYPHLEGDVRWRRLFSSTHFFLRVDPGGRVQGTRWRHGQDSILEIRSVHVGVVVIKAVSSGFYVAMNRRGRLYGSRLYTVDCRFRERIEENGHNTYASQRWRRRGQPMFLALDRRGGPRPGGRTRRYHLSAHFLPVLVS
# AF4-AF9 inh: blocks AF4 peptide binding to human AF9; P42568; AlphaScreen, biotin-AF4 peptide binding to FLAG-AF9; inhibition, % at 10 µM; hit rate 0.47% among 350,000; AID 651704;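 active means every replicate reaching a set inhibition limit, whatever the replicate mean, cut at about 25% in these data; inconclusive means mean inhibition reaches that limit but some replicates miss it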;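 further: 0% = plate neutral control median and 100% = total signal loss; the record names both 10 and 1 µM as test concentration; the first replicate is given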
# Target sequence (P42568 whole entry, looked up): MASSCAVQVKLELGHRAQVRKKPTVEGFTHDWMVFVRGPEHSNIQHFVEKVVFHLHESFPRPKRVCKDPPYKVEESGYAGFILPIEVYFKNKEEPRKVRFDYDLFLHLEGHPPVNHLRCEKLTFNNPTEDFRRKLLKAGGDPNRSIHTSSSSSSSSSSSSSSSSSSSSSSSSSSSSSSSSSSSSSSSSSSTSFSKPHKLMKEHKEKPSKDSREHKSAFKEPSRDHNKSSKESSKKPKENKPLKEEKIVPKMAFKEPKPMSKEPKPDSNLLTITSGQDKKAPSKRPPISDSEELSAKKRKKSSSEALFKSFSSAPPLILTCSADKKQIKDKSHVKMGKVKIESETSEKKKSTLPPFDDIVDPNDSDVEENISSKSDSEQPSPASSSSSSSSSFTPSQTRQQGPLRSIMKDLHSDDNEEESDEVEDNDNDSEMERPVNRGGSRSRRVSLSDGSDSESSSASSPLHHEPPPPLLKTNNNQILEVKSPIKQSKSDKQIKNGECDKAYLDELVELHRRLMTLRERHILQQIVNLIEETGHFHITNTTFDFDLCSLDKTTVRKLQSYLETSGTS
# Ecoli rRNA inh: inhibits bacterial ribosomal RNA function over humanized ribosomes | E. coli WT GFP vs humanized-ribosome RFP mutants, fluorescence, 24 h; active compounds read low; DMSO median 0, no signal -100 | GFP signal change (wild-type ribosome), % (concentration not given with the values) | hit rate 1.6% among 350,000;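 active means significant combined selectivity score with lowered wild-type GFP, culture density cut under 30%, mutant RFP and density less affected; inactive means any of these conditions unmet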; further: one replicate is shown; some compounds called inactive have numbers as strong as hits
# ALR H2O2 inh: human ALR oxidase inhibition via reduced H2O2; purified ALR, DTT oxidation, H2O2 HRP-luminol luminescence; hit rate 3.8% among 290,000; inhibition, % (concentration not given with the values); P55789;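 active means mean and each replicate at 75% or more; inconclusive means only one of the two met; inactive means neither met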;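 further: stock transfer was 7.5 nL into about 7.5 µL; 0% = neutral wells and 100% = wells with inactivated enzyme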
# Target sequence (P55789 whole entry, looked up): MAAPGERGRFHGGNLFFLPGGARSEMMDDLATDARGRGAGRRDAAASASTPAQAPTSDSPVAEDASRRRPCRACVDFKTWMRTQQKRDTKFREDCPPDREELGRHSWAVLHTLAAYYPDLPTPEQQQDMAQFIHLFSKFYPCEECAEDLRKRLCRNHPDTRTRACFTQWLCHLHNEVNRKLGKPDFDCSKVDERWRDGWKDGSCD
# HNF4A DNA FP: change in binding of human HNF4 alpha to DNA | HNF4a-FITC DNA binding, fluorescence polarization, 1 h | activity change, % at 10 µM | hit rate 0.3% among 360,000; in the data active means activity change above about 30%, passing the limit was not always enough;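 further: controls were the assay level and a saturating level of protein; the project sought stronger binding though the title names inhibitors; some compounds called inactive have numbers as strong as hits; positive values seem to mean higher polarization but the record does not say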
# Ecoli growth: blocks Escherichia coli growth | OD600, 23 h; active compounds read low | OD600 absorbance (concentration not given with the values) | hit rate 0.21% among 330,000;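 active means OD600 absorbance below the run mean of sample wells minus 3.6 SD, in any replicate, cut at about 0.56 in these data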;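 further: stock transfer was 300 nL into about 60 µL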
# Vif TR-FRET: inhibitors of Vif binding to APOBEC3G peptide, primary screen, biochemical, TR-FRET, GST-Vif 1-94, biotin-A3G peptide, dose response retest (AID 1117319). TR-FRET GST-Vif / biotin-A3G peptide binding; higher % means a stronger effect; test concentration not given here; strong numbers were not always called active. one-dose inhibition, %; IC50 in µM for titrated hits. hit rate 0.57% among 260,000;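 active means above the screen mean plus three standard deviations and confirmed in dose response; inconclusive means results disagree or hit not tested in dose response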;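 further: Vif residues 1-94 fused to GST binding biotinylated APOBEC3G peptide 110-148; 0% = full assay without inhibitor and 100% = GST in place of GST-Vif; retest series ran down from 100 µM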
# Ecoli rRNA inh OD600: also measured in Ecoli rRNA inh; calls as there; OD600 change, %; measured here: OD600 growth;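 optical density of the mix in the first replicate; 0 = DMSO median and -100 = no signal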
# Ecoli rRNA inh RFP: recorded beside Ecoli rRNA inh, whose call it bears; RFP signal change, %; measured here: RFP humanized mutant strains;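 first replicate; 0 = DMSO median and -100 = no signal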
# The depositor's hits bear a star; i = inactive; ? = inconclusive; . = not tested or not shown.
SMILES,FGF22 binding,AF4-AF9 inh,Ecoli rRNA inh,Ecoli rRNA inh OD600,Ecoli rRNA inh RFP,ALR H2O2 inh,HNF4A DNA FP,Ecoli growth,Vif TR-FRET
O=C(NCc1cccnc1)NC1CC(=O)N(c2ccc3c(c2)OCCO3)C1 (configuration not stated),i,-20.2,10.1,-3.8,-0.6,-3.1,0.1,0.693,?
C[C@@H]1CN([C@H](C)CO)C(=O)Cc2cc(NS(=O)(=O)c3cn(C)cn3)ccc2O[C@@H]1CN(C)C(=O)Nc1cccc2ccccc12,i,-3.0,1.4,8.9,-0.2,.,.,.,.
CCN(CC)CCOC(=O)c1ccc(NC(=O)C(C)NC(=O)C23CC4CC(CC(C4)C2)C3)cc1 (configuration not stated),.,.,.,.,.,-1.9,-0.4,0.7,-1.2%
O=C(C[C@@H]1C[C@@H]2c3cc(NC(=O)Nc4ccccc4F)ccc3O[C@@H]2[C@H](CO)O1)NCc1ccncc1,i,-0.3,1.7,-3.8,-0.1,.,.,.,.
C[C@@H]1CN([C@@H](C)CO)C(=O)c2cc(NC(=O)CCCN(C)C)ccc2O[C@H]1CN(C)Cc1ccc(C(=O)O)cc1,i,-1.7,4.1,2.0,-0.3,.,.,.,.
Cc1ccc(OCc2occc2C(=O)O)cc1,i,-1.4,-4.4,-1.5,-0.3,.,-2.9,0.662,.
Cc1c(Cl)cccc1NS(=O)(=O)c1ccc2c(c1)C1C=CCC1C(c1ccc(C(=O)O)cc1)N2 (configuration not stated),.,.,.,.,.,98.0*,-41.2,0.659,2.54µM*
O=C(CSc1ccc(-c2ccccn2)nn1)c1ccc([N+](=O)[O-])cc1,i,-22.1,11.3,3.3,-0.3,2.3,7.4,0.657,0.7%
Cc1ccc(C(=O)OCC(=O)NC2CCCC(C)C2C)cc1S(=O)(=O)N1CCCCC1 (configuration not stated),i,-2.0,13.4,11.8,2.0,-3.9,1.6,0.666,.
Cc1ccc2cc3cc(C(=O)NCCCN4CCCCCC4)oc3nc2c1,.,.,.,.,.,-2.1,1.5,0.7,-6.0%
O=C(c1cccc(F)c1)N1CC2(C1)[C@H](c1ccccc1)[C@@H](CO)N2C(=O)C1CCCCC1,i,-1.4,-2.5,6.6,1.8,.,.,.,.
COc1cccc(S(=O)(=O)N2CC[C@@H]3[C@@H](CO)Nc4ccc(C#Cc5ccccc5)cc4[C@@H]32)c1,i,-0.7,1.9,20.5,0.7,.,.,.,.
CCC(C)n1c(-c2cccs2)nc2nc3ccccc3nc21 (configuration not stated),.,.,.,.,.,3.1,1.6,0.763,-21.1%
COc1ccccc1-c1ccc([C@@H]2[C@H](CO)N(C(=O)C3CC3)C23CN(C(C)=O)C3)cc1,i,0.7,1.8,-1.2,3.4,.,.,.,.
Cc1ccc(S(=O)(=O)Nc2ccc3c(c2)C(=O)N([C@@H](C)CO)C[C@@H](C)[C@@H](CN(C)C(=O)NC2CCCCC2)OCCCC[C@@H](C)O3)cc1,i,-1.4,0.6,-5.3,7.4,.,.,.,.
COc1ccc(S(=O)(=O)Nc2ccc(NC(C)=O)cc2)cc1,.,.,.,.,.,-39.4,2.5,0.692,3.7%
N#Cc1cccc(NC(=O)COC(=O)c2ccccc2C(=O)c2ccc(Cl)c([N+](=O)[O-])c2)c1,.,.,.,.,.,-2.6,3.6,0.689,-0.7%
Cc1cc(C)n2c(NCc3ccccc3)c(CC(C)C)nc2n1,i,7.0,-3.3,15.6,-4.2,.,4.8,.,.
CCCC[C@@H]1Cc2[nH][nH]c(=O)c2[C@@H](c2ccc(Cl)cc2)O1,i,-2.9,5.2,21.0,-1.2,.,-3.9,.,.
Cc1ccc(OCC(=O)N(C)CC(=O)Nc2ccc(Cl)c(C(F)(F)F)c2)c([N+](=O)[O-])n1,i,2.4,.,.,.,-2.7,1.3,0.635,-6.0%
COc1cc2[nH]c3c(=O)n(N)c(=O)[nH]c3c2cc1OC,i,0.0,1.2,8.8,-2.0,5.4,5.1,0.645,-6.0%
O=[N+]([O-])c1cccc2ccc(/C=C/c3ccc(Cl)cc3)nc12,i,8.0,-2.1,6.6,2.3,-0.6,1.2,.,17.1%
N#Cc1nc(COc2ccccc2)oc1NCCCn1ccnc1,.,.,-18.2,-14.9,-12.2,8.6,-2.3,0.723,1.0%
CCN(CC(=O)Nc1c(C(=O)OC)[nH]c2ccccc12)c1ccc2c(c1)OCO2,.,.,.,.,.,.,-10.9,0.659,5.84µM*
COc1ccc(S(=O)(=O)N(CC(=O)NCC2CCCO2)c2ccc(F)cc2)cc1OC (configuration not stated),.,.,.,.,.,-3.1,0.7,0.665,-2.9%
CCCCC(CC)Cn1c(O)c(/C=C2\C=NN=C2c2ccccc2)sc1=S (configuration not stated),.,.,.,.,.,-3.4,-3.4,0.725,-11.7%
COc1ccc(CCNC(=O)COc2ccc(S(=O)(=O)N3CCOCC3)cc2)cc1OC,.,.,.,.,.,-0.9,-2.0,0.671,8.4%
COc1ccc(S(=O)(=O)N(C)C[C@H]2OCCCC[C@@H](C)Oc3ccc(NC(=O)CCC(F)(F)F)cc3C(=O)N([C@H](C)CO)C[C@H]2C)cc1,i,1.6,0.1,0.9,2.5,.,.,.,.
CC(C)CC1C(=O)N(Cc2cn(CC3CCCCC3)nn2)CCS(=O)(=O)N1Cc1ccc(-c2cccc(CO)c2)cc1 (configuration not stated),i,0.5,4.7,7.4,-2.7,.,-2.5,.,11.5%
COc1ccc(C2=NOC(Cn3nc(C(=O)NCC4CC4)cc3-c3ccccc3)C2)cc1 (configuration not stated),i,-0.2,-19.4,-26.6,-10.5,0.9,1.1,0.588,.
Cc1ccccc1CSCCNC(=O)c1ccc(Cl)c(S(=O)(=O)N2CCOCC2)c1,.,.,.,.,.,-13.2,-1.7,0.698,?
CC(C)c1nnc(NC(=O)CC(=O)Nc2ccccc2C(=O)O)s1,.,.,.,.,.,0.7,3.1,0.728,15.4%
CC1(C(=O)N2CCCCC2)CCN1C(=O)C1(c2ccccc2)CC1 (configuration not stated),i,1.7,14.9,14.1,1.6,.,1.4,.,.
C=C(C)CSc1nc(N)c(C#N)c(-c2ccc(C)cc2)c1C#N,i,-0.7,-2.8,-3.7,1.5,-16.6,3.3,0.622,-30.6%
N#C[C@@H]1[C@@H](c2ccc(C3=CCCCC3)cc2)[C@H](CO)N1S(=O)(=O)c1cccc(F)c1,i,2.7,0.5,2.7,0.0,.,.,.,.
Cc1c(Cl)cccc1NC(=O)CNCc1ccccc1F,i,-0.4,30.6,25.2,4.0,-1.6,0.6,0.663,-2.1%
COCCNC(=O)c1ccc2c(c1)nc(C)n2-c1cc(OC)c(OC)c(OC)c1,.,.,.,.,.,.,-0.2,0.78,3.7%
Cc1ccc(S(=O)(=O)c2cc3c(=O)n4ccccc4nc3n(CC3CCCO3)c2=N)cc1C (configuration not stated),i,-2.4,1.8,1.8,-6.2,-3.4,3.5,0.707,-8.5%
CN1C(=O)c2cc(NC(=O)c3ccccc3)ccc2OC[C@H]2O[C@H](CC(=O)NCC3CC3)CC[C@@H]21,i,2.3,4.1,1.5,0.2,.,.,.,.
COCCOC(=O)c1c(NC(=O)CN2CCOCC2)sc(C(N)=O)c1C,.,.,.,.,.,-5.9,-0.7,0.683,-5.0%
Cn1c(=O)c2c(nc(N3CCOCC3)n2CCCNC2=NCCCCC2)n(C)c1=O,.,.,.,.,.,-5.5,0.7,0.683,7.9%
CC1CCN(C(=S)c2cccc([N+](=O)[O-])c2)CC1,i,2.4,2.4,2.4,-1.7,2.6,-4.5,0.692,-8.6%
CCOC(=O)[C@]12CCCC=C1N(Cc1cccc3ccccc13)C(=O)[C@H](CC(=O)NCCCN1CCCC1=O)C2,i,-1.9,.,.,.,.,7.0,.,.
CCOc1ccc(NC(=O)CC2C(=O)N(CC)C(=S)N2CCNC(C)=O)cc1 (configuration not stated),.,.,.,.,.,-9.1,1.4,0.686,-0.1%
COC(=O)C1=C(C)NC(=O)NC1c1cn(-c2ccccc2)nc1-c1cccs1 (configuration not stated),.,.,.,.,.,0.3,3.1,0.681,3.1%
CC(Sc1cccc[n+]1[O-])C(=O)Nc1ccc(Oc2ccccc2)cc1 (configuration not stated),i,-7.3,-20.6,-32.0,2.4,24.5,-4.3,0.665,.
O=C(Cn1c(C(=O)NCC2CCCO2)cc2sccc21)c1ccccc1 (configuration not stated),i,-1.8,.,.,.,-2.2,0.8,0.666,4.1%
Cn1nc(C(=O)OCC(=O)c2ccc(Cl)cc2)c2ccccc2c1=O,i,-5.2,5.0,19.5,-0.7,-2.3,2.6,0.717,-18.3%
Cc1cccc(NC(=O)C2C3C=CC(C4CC34)C2C(=O)O)c1 (configuration not stated),.,.,.,.,.,-0.7,-0.5,0.746,23.1%
COCCN(CC(=O)NC1CCCCC1)C(=O)CSc1nc2ccccc2o1,.,.,.,.,.,-6.8,1.4,0.729,6.1%
CC1CCCN(c2nc(NCc3ccco3)nc(N)c2[N+](=O)[O-])C1 (configuration not stated),i,?,-30.2,-30.7,-4.4,13.5,2.1,0.691,-3.9%
Nc1nonc1-c1nc2ccccc2n1CC(=O)N/N=C/c1ccc(-c2cccc(C(=O)O)c2)o1,i,0.7,18.8,15.6,4.1,.,-2.0,.,-9.9%
COc1ccc([C@H]2CC(=O)C=C(c3ccccc3)C2)cc1OC,i,3.7,-19.5,-31.0,-3.8,1.8,6.7,.,.
COc1ccc(N2C(=O)c3ccccc3NC2c2ccc(OC)c(Cn3nnc4ccccc43)c2)cc1 (configuration not stated),.,.,.,.,.,-6.5,-1.0,0.71,.
COc1cc(Cc2nc3ccccc3n2C(C)c2nc3ccccc3[nH]2)cc(OC)c1 (configuration not stated),i,4.1,14.2,19.3,3.0,.,8.9,.,.
C[C@@H](NC(=O)C[C@H]1CC[C@@H](NC(=O)C2CCC2)[C@@H](CO)O1)c1ccccc1,i,1.4,1.4,-1.4,-1.2,.,.,.,.
Cc1cc(Nc2ccc(F)cc2)n2nc(C)nc2n1,i,-0.3,7.3,6.9,1.0,.,-2.8,0.733,0.0%

# Grouped by structure, those above with a COOH group.
SMILES,FGF22 binding,AF4-AF9 inh,Ecoli rRNA inh,Ecoli rRNA inh OD600,Ecoli rRNA inh RFP,ALR H2O2 inh,HNF4A DNA FP,Ecoli growth,Vif TR-FRET
C[C@@H]1CN([C@@H](C)CO)C(=O)c2cc(NC(=O)CCCN(C)C)ccc2O[C@H]1CN(C)Cc1ccc(C(=O)O)cc1,i,-1.7,4.1,2.0,-0.3,.,.,.,.
Cc1ccc(OCc2occc2C(=O)O)cc1,i,-1.4,-4.4,-1.5,-0.3,.,-2.9,0.662,.
Cc1c(Cl)cccc1NS(=O)(=O)c1ccc2c(c1)C1C=CCC1C(c1ccc(C(=O)O)cc1)N2 (configuration not stated),.,.,.,.,.,98.0*,-41.2,0.659,2.54µM*
CC(C)c1nnc(NC(=O)CC(=O)Nc2ccccc2C(=O)O)s1,.,.,.,.,.,0.7,3.1,0.728,15.4%
Cc1cccc(NC(=O)C2C3C=CC(C4CC34)C2C(=O)O)c1 (configuration not stated),.,.,.,.,.,-0.7,-0.5,0.746,23.1%
Nc1nonc1-c1nc2ccccc2n1CC(=O)N/N=C/c1ccc(-c2cccc(C(=O)O)c2)o1,i,0.7,18.8,15.6,4.1,.,-2.0,.,-9.9%

# An excerpt (hit frequency here may not be typical).
